Screens: PubChem, several laboratories
UCH37 inh = blocks the human deubiquitinase UCH37. hit rate 0.33% among 330,000. purified proteasome/UCH37, Ub-AMC cleavage fluorescence. Q9Y5K5. inhibition, % (no concentration beside the values);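 active means mean of two replicates above 20%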;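 further: 0% = compound-free wells with enzyme and 100% = wells lacking proteasome; stock transfer was 100 nL into about 20 µL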
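Schedule: 30 min plus 25 min, room temperature / Material: human UCH37 within purified proteasomes / Technique: AMC fluorescence intensity at 355/460 nm / Buffer or medium: pH 7.4 Tris-HCl (50 mM) with ovalbumin, ATP-MgCl2, DTT / Controls: wells without proteasome as full block, compound-free enzyme plus substrate as uninhibited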
T cruzi repl = blocks replication of Trypanosoma cruzi | inhibition, % (no concentration beside the values) | hit rate 1.4% among 300,000 | AID 1885 | T. cruzi beta-gal in NIH3T3, luminescence, 90 h;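 active means mean inhibition across valid replicates above about 55%, limit read from the data; inconclusive means mean below that limit but half or more replicates reach it; inactive means mean below it, under half of replicates reach it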;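 further: signal also drops with host cell toxicity which is not excluded here; 0% = plate median of DMSO wells and 100% = zero luminescence signal; higher percent means less beta-gal luminescence so fewer parasites; stock transfer was 50 nL into about 50 µL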
Beta cell apopt = blocks beta cell apoptosis. hit rate 0.8% among 300,000. protection from apoptosis, % (concentration not given with the values). AID 435005. INS-1E cytokine-induced death, ATP luminescence, 48 h; percent of positive-control rescue, neutral wells zero;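 active means all replicates at 75% or more, or half of them and the mean; inconclusive means half reach 75% but not the mean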;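 further: 0% = cytokine-treated negative control wells and 100% = positive control rescue; higher means more ATP so stronger rescue from cytokine killing; wells of about 40 µL received 100 nL stock; the first replicate is given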
MLL AF4-AF9 inh = MLL-AF4/AF9 protein interaction inhibition; P42568; AlphaScreen, biotin-AF4 peptide binding to FLAG-AF9; inhibition, % at 10 µM; hit rate 0.47% among 350,000;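 active means every replicate reaching a set inhibition limit, whatever the replicate mean, cut at about 25% in these data; inconclusive means mean inhibition reaches that limit but some replicates miss it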;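 further: 0% = plate neutral control median and 100% = total signal loss; the record names both 10 and 1 µM as test concentration; the first replicate is given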
Target sequence (P42568 whole entry, looked up): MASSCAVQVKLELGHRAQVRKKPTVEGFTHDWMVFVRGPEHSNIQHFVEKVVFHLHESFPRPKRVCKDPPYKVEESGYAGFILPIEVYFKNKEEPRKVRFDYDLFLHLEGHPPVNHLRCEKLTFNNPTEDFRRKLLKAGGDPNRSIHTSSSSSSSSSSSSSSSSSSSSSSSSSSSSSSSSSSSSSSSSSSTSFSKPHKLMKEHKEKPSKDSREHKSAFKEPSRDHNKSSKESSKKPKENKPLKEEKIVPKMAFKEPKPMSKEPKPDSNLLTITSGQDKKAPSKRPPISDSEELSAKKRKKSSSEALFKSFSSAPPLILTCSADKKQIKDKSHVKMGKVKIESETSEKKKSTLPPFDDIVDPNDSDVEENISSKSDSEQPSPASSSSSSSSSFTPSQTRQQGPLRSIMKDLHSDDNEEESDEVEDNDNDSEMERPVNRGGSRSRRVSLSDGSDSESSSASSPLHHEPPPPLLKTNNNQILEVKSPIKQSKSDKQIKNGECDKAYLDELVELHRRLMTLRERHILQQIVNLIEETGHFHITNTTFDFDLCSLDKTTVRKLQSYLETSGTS
rRNA inh HTS = inhibits bacterial ribosomal RNA function over humanized ribosomes | E. coli WT GFP vs humanized-ribosome RFP mutants, fluorescence, 24 h; stronger effect = lower value; DMSO median 0, no signal -100 | GFP signal change (wild-type ribosome), % (test concentration not listed) | hit rate 1.6% among 350,000;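 active means significant combined selectivity score with lowered wild-type GFP, culture density cut under 30%, mutant RFP and density less affected; inactive means any of these conditions unmet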; further: one replicate is shown; some compounds called inactive have numbers as strong as hits
E coli growth = blocks Escherichia coli growth; OD600, 23 h; stronger effect = lower value; hit rate 0.21% among 330,000; OD600 absorbance (test concentration not listed);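 active means OD600 absorbance below the run mean of sample wells minus 3.6 SD, in any replicate, cut at about 0.56 in these data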;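 further: stock transfer was 300 nL into about 60 µL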
Bfl-1 A1 inh = inhibitors of the anti-apoptotic protein A1, read as caspase activation. caspase activation, % (no concentration beside the values). AID 2462. MEF A1-2A-BIM cells, Caspase-Glo 3/7 luminescence, 3 h; percent of clofoctol response, vehicle zero. hit rate 0.066% among 330,000;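 active means over half of replicate activation scores above 10%, or exactly half above 10 with the replicate mean above 10; inconclusive means replicate mean below 10 yet half the replicates above 10; inactive means over half of replicates below 10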;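 further: wells of about 30 µL received 50 nL stock; many hits fall short of the cut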
FGF22 binding = shifts melting point of recombinant human FGF22. Q9HCT0. recombinant FGF22 thermal shift, SYPRO orange fluorescence; percent of sucrose octasulfate shift, DMSO zero. calls only at 9.99 µM. hit rate 1.5% among 340,000. AID 651658;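 active means melting point raised past a set limit in the mean and every replicate; inconclusive means no clear call; three in four hits are not shown here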
Target sequence (Q9HCT0 whole entry, looked up): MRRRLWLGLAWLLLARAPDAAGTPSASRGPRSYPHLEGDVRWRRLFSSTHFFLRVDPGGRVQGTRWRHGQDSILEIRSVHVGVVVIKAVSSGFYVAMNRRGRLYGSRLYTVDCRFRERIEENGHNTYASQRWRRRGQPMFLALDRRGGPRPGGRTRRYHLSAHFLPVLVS
rRNA inh HTS OD600 = also measured in rRNA inh HTS; calls as there; OD600 change, %; measured here: OD600 growth;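 optical density of the mix in the first replicate; 0 = DMSO median and -100 = no signal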
rRNA inh HTS RFP = recorded beside rRNA inh HTS, whose call it bears; RFP signal change, %; measured here: RFP humanized mutant strains;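 first replicate; 0 = DMSO median and -100 = no signal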
* hit, by the source's call; i = inactive; ? = inconclusive; . = not tested or not shown. These rows are one share of the data (hit frequency here may not be typical).

structure	UCH37 inh	T cruzi repl	Beta cell apopt	MLL AF4-AF9 inh	rRNA inh HTS	rRNA inh HTS OD600	rRNA inh HTS RFP	E coli growth	Bfl-1 A1 inh	FGF22 binding
CCN(CC)S(=O)(=O)c1cccc(NC(=S)NC(=O)/C=C/c2ccc(S(=O)(=O)N3CCOCC3)cc2)c1	-0.6	10	-7	-2.3	11	-7	-1.0	0.68	-0.5	.
CCOc1ccccc1-c1noc(CCC(=O)Nc2cccnc2)n1	-1.5	-6	1	-2.9	-2	2	3.3	0.71	0.1	i
O=C1N[C@@H](c2ccccc2)COC(=O)[C@H](Cc2ccc(F)cc2)CC/C=C/C[C@@H]1CC(=O)N(CCO)Cc1ccccc1	3.3	.	2	2.0	-20	-28	-9.2	.	-0.3	i
Cc1ccc(NC(=O)c2cc(C)nc3ccccc23)c(C)c1	-0.8	-13	4	0.0	16	7	1.9	0.68	3.2	i
CCc1ccc(OC)c(S(=O)(=O)N2CCN(C(=O)c3ccco3)CC2)c1	3.8	18	1	-0.1	-1	-2	-0.8	0.73	2.2	i
CC(=O)Nc1ccc(NC(=O)/C=C/c2ccccc2)cc1	6.3	-13	4	-0.6	6	9	-0.3	0.71	0.4	i
CN(CC(=O)Nc1ccc(Cl)cc1)Cc1cc(=O)n2ccsc2n1	3.3	-2	-4	-5.6	5	3	-0.3	0.69	0.0	i
Cc1cc(Cl)cc2c(N=Nc3ccccc3C(=O)O)c(O)[nH]c12	7.6	-6	-6	2.1	3	8	-3.2	0.68	-0.5	i
CC(C)N1CCC(=NNC(=O)c2ccccc2[N+](=O)[O-])CC1	0.9	8	-1	1.6	4	1	-0.8	0.64	0.3	i
CC(C)(C)c1ccc(-c2nc3c(C#N)c(-c4ccc5c(c4)OCO5)ccn3n2)cc1	i	64*	-6	.	.	.	.	0.71	1.2	.
COc1ccc(Br)cc1CN(C)C(=O)c1ccncc1	1.1	-11	-4	3.5	3	4	-1.8	0.72	-0.1	i
CCc1ccc(CC2(O)CC(C)N(C)CC2C)cc1 (stereo not given)	4.5	-8	-3	-2.4	-14	-31	-15	0.73	0.1	i
O=C(COC(=O)c1cccc(C(F)(F)F)c1)NCc1ccccc1	-0.1	-4	0	.	.	.	.	0.7	1.5	.
CC(C)CNS(=O)(=O)c1cc2c3c(c1)CC(=O)N3CCC2	-0.4	-8	-5	-2.4	1	8	-7.0	0.7	0.9	i
O=C1CC(c2cccc(F)c2)SC(N(c2ccccc2)c2ccccc2)=N1 (stereo not given)	2.6	30	0	5.4	2	-6	-8.8	0.77	-0.3	i
COc1ccc(Br)cc1/C=C1\Oc2ccccc2NC1=O	-147	-11	1	-1.7	5	7	-1.1	0.68	0.6	i
CCOC(=O)c1c(-c2ccc(F)cc2)csc1NC(=O)CCN1CCOCC1	0.9	6	-4	.	.	.	.	0.66	0.7	.
COc1cccc(C2(O)CCN(C(=O)Cc3cccnc3)CC2)c1	4.1	-15	-3	.	.	.	.	0.69	0.7	.
COc1ccc(C(CNS(=O)(=O)c2ccc(F)cc2)N2CCN(C)CC2)cc1 (stereo not given)	5.3	-9	0	0.0	21	15	-0.4	0.7	-0.1	i
Cc1ccc(NCC(=O)Nc2ccc(Br)cc2)cc1C	-2.8	-10	3	6.5	6	7	5.0	0.63	0.3	i
O=C(CSc1ccsc1[N+](=O)[O-])N1CCCCCC1	4.6	-5	-1	-2.5	-7	-8	3.2	0.69	1.5	i
Nc1nnc(C2CCCC2)s1	4.0	-3	-3	7.5	6	7	2.4	0.66	2.1	i
CCOC(=O)c1cnc(SCC(=O)Nc2ccc(NC(=O)CC)c(OC)c2)nc1N	3.5	-2	0	.	.	.	.	0.72	-0.2	.
Cc1cc(=O)oc(C)c1C(=O)Nc1cccc2nonc12	0.4	1	-1	.	.	.	.	0.72	-0.1	.
CC1CC(=O)Nc2ccccc2N1C(=O)CSc1ncnc2sccc12 (stereo not given)	2.3	.	0	-0.2	.	.	.	0.7	0.7	i
CC(=O)c1cccc(N2C(=O)C3C4CCC(C4=C(C)C)C3C2=O)c1 (stereo not given)	1.6	2	2	.	.	.	.	0.65	0.5	.
CN(CC(=O)Nc1cccc(C(F)(F)F)c1)Cc1ccccc1	3.6	14	-2	4.9	-4	-14	-1.1	0.6	0.4	i
CCn1c(NCc2ccco2)nc2ccccc21	-0.8	-9	-5	0.5	13	-1	3.8	0.7	-0.1	i
Cc1cccc(OCCCCc2c(C)n[nH]c2C)c1C	3.2	-5	39	1.9	-57	-81	-30	0.69	-0.2	i
Cc1cccc(NCc2ccc(Br)cc2)n1	2.4	4	-5	3.7	-7	-10	-1.5	0.62	-2.6	i
CSc1ncc(F)c(N(CCO)CCO)n1	4.1	-4	-3	.	.	.	.	0.68	?	.
COc1ccc(NC(=O)CSc2ccc(-c3cccnc3)nn2)cc1	0.2	-1	-4	-0.5	.	.	.	0.64	0.3	i
CC(C)NC(=O)c1ccc(C(C)C)cc1	.	-19	-1	1.1	12	12	-0.6	.	0.8	i
O=C(CN1CCN(C(=O)c2ccco2)CC1)Nc1ccc2c(c1)OCCO2	2.4	-18	-4	.	.	.	.	0.73	0.3	.
CC(Nc1ccccc1)c1ccncc1 (stereo not given)	-0.1	32	-12	-1.6	14	8	3.2	0.67	-0.1	i
O=C(CCOc1ccccc1)Nc1ccccc1	-2.0	-1	2	.	.	.	.	0.78	-0.3	.
COc1ccc(-c2c(C#Cc3ccsc3)c3cc(-c4ccc(OC)nc4)ccc3n2C)cc1	-38	.	3	-6.5	12	12	2.8	0.77	-0.7	i
Cn1c(=O)c2[nH]c(N3CCN(c4ccccc4)CC3)nc2n(C)c1=O	0.2	-11	-4	0.8	10	18	4.5	0.7	-0.6	i
CCN(Cc1ccccc1)S(=O)(=O)c1cc(C(=O)NCCCN(C)C)ccc1OC	1.1	28	-2	-1.2	14	12	1.1	0.72	-0.3	.
CC1(C)CCCC2=C1CC1C(=O)N(N)C(=O)C1C2 (stereo not given)	1.5	-18	-11	-2.5	15	13	-0.1	0.69	-0.6	i
Cc1cccc(N(C)C(=O)CN2C(=O)COc3ccc(S(=O)(=O)N4CCCCCC4)cc32)c1	4.3	-10	4	6.4	-32	-31	-0.3	0.71	0.1	i
COC(=O)c1ccccc1NC(=O)NC1CCC(C)CC1 (stereo not given)	-2.8	-44	2	-1.3	1	-1	-3.7	0.65	-1.3	i
COCCNC(=O)C(c1ccco1)N(C(=O)Cn1nnc2ccccc21)c1ccc(C)cc1C (stereo not given)	2.5	4	.	.	.	.	.	0.7	3.4	.
CCN1CCN(S(=O)(=O)c2ccc(Cl)c(C(=O)NC3CCC(C)CC3)c2)CC1 (stereo not given)	1.3	.	-9	-0.6	21	16	-1.9	0.71	0.3	i
COc1c(C)cc(Br)cc1C(=O)NCc1cccnc1	3.4	-11	-3	8.2	1	-1	-6.9	0.66	-0.6	i
CC1CCCCN1C(=O)COC(=O)CNC(=O)c1sc2ccccc2c1Cl (stereo not given)	1.1	-17	-3	-3.5	-13	-8	2.8	0.7	0.0	i
CC(=O)N(CCC(Cc1ccccc1)c1ccco1)Cc1ccco1 (stereo not given)	1.6	6	-2	-5.6	-4	-5	2.2	0.66	-0.3	i
CC1CCCN(C(=O)CSc2nnc(-c3ccco3)n2C)C1 (stereo not given)	0.0	-9	-5	0.3	1	9	-0.6	0.67	0.1	i
CC(NCC(O)COCCC12CC3CC(CC(C3)C1)C2)c1ccccc1 (stereo not given)	6.6	60*	88*	9.3	-62	-81	-22	0.6	-0.2	i
O=C(Nc1ccc(Cl)cc1F)C1CCN(S(=O)(=O)c2cccc3nonc23)CC1	0.0	-6	-2	-1.1	5	9	-1.7	0.64	-0.2	i

Later entries:
structure	UCH37 inh	T cruzi repl	Beta cell apopt	MLL AF4-AF9 inh	rRNA inh HTS	rRNA inh HTS OD600	rRNA inh HTS RFP	E coli growth	Bfl-1 A1 inh	FGF22 binding
CC1CCC(NC(=O)C2(C)CCC(=O)N2Cc2cccnc2)CC1 (stereo not given)	6.0	-7	-2	3.3	4	4	-0.1	0.78	1.2	i
C=CCn1c(SCC(=O)Nc2cc(C)cc(C)c2)nnc1-c1cnccn1	-1.1	-2	-8	.	.	.	.	0.77	0.5	.
COc1ccc(/C=C2\SC(N)=NC2=O)cc1Cl	-5.3	-7	-2	-1.5	0	2	6.6	0.59	0.1	i
O=S(=O)(Nc1cc(S(=O)(=O)N2CCCC2)ccc1O)c1ccc(Cl)s1	-0.8	.	.	-3.2	-6	-11	1.0	0.64	.	i
COC(=O)C1=C2c3[nH]c4ccccc4c3CCN2C(=O)CC1	3.0	14	3	8.5	.	.	.	0.7	-0.3	i
CCOC(=O)C(C)n1cnc2c(nnn2-c2ccc(C)cc2)c1=O (stereo not given)	5.8	-40	0	.	.	.	.	0.69	-0.2	.
CCOC(=O)c1[nH]c(C)c(C(=O)Nc2cc(Cl)ccc2C)c1C	-0.9	-50	14	-0.6	-2	7	2.1	0.77	0.9	i
O=C(OCc1cccc(F)c1)c1ccc2c(c1)-c1ccccc1C2=O	3.2	18	-8	.	.	.	.	0.75	-2.6	.
Cc1nnc(SCC(=O)N2CC(=O)Nc3ccccc32)n1C	-2.0	-7	1	.	.	.	.	0.75	0.0	.
